# Assay outcomes as filed in PubChem.
# Vif TR-FRET: HIV-1 Vif–A3G interaction blockers – biochemical, TR-FRET, GST-Vif 1-94, biotin-A3G peptide, dose response retest, primary screen (AID 1117319) | TR-FRET GST-Vif / biotin-A3G peptide binding; higher % means a stronger effect; test concentration not given here; strong numbers were not always called active | inhibition, %; hits with a dose series show IC50 in µM | 0.57% of 260,000 active;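 active means above the screen mean plus three standard deviations and confirmed in dose response; inconclusive means results disagree or hit not tested in dose response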;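 further: Vif residues 1-94 fused to GST binding biotinylated APOBEC3G peptide 110-148; 0% = full assay without inhibitor and 100% = GST in place of GST-Vif; retest series ran down from 100 µM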
# HNF4A DNA FP: change in binding of human HNF4 alpha to DNA; AID 1224865; HNF4a-FITC DNA binding, fluorescence polarization, 1 h; activity change, % at 10 µM; 0.3% of 360,000 active; in the data active means activity change above about 30%, passing the limit was not always enough;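 further: controls were the assay level and a saturating level of protein; the project sought stronger binding though the title names inhibitors; some compounds called inactive have numbers as strong as hits; positive values seem to mean higher polarization but the record does not say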
# MLL AF4-AF9 inh: inhibitors of human MLL-AF4/AF9 interaction; inhibition, % at 10 µM; 0.47% of 350,000 active; AID 651704; P42568; AlphaScreen, biotin-AF4 peptide binding to FLAG-AF9;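 active means every replicate reaching a set inhibition limit, whatever the replicate mean, cut at about 25% in these data; inconclusive means mean inhibition reaches that limit but some replicates miss it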;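 further: 0% = plate neutral control median and 100% = total signal loss; the record names both 10 and 1 µM as test concentration; the first replicate is given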
# Target sequence (P42568 whole entry, looked up): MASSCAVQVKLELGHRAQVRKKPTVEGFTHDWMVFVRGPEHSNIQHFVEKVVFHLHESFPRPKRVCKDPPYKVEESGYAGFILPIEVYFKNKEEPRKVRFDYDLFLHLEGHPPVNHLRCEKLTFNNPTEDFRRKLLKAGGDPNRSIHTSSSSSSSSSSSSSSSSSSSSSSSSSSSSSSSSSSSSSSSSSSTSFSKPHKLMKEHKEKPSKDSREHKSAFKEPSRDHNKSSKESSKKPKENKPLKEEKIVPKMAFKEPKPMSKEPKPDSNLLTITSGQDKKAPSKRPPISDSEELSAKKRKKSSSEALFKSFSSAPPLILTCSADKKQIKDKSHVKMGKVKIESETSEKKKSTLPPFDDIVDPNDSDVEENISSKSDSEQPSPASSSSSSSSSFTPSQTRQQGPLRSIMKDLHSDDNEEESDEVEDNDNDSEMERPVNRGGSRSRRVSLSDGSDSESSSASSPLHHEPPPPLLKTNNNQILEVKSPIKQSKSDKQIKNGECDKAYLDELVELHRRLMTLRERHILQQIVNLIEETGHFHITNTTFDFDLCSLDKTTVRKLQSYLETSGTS
# FGF22 binding: FGF22 (human) thermal shift binding; calls only at 9.99 µM; 1.5% of 340,000 active; Q9HCT0; recombinant FGF22 thermal shift, SYPRO orange fluorescence; percent of sucrose octasulfate shift, DMSO zero;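 active means melting point raised past a set limit in the mean and every replicate; inconclusive means no clear call; three in four hits are not shown here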
# Target sequence (Q9HCT0 whole entry, looked up): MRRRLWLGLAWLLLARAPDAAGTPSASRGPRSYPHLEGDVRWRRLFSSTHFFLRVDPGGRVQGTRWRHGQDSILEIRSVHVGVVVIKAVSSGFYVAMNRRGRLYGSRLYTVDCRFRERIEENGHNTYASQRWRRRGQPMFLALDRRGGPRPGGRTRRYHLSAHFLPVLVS
# ALR H2O2 inh: blocks human ALR sulfhydryl oxidase activity | 3.8% of 290,000 active | inhibition, % (no concentration beside the values) | P55789 | purified ALR, DTT oxidation, H2O2 HRP-luminol luminescence;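 active means mean and each replicate at 75% or more; inconclusive means only one of the two met; inactive means neither met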;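 further: stock transfer was 7.5 nL into about 7.5 µL; 0% = neutral wells and 100% = wells with inactivated enzyme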
# Target sequence (P55789 whole entry, looked up): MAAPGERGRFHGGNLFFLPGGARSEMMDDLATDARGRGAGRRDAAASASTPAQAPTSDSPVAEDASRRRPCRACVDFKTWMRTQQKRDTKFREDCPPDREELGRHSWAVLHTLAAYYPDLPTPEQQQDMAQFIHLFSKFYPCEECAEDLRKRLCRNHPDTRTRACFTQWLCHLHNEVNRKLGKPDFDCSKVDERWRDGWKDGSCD
# Ecoli growth: inhibitors of Escherichia coli growth; OD600, 23 h; stronger effect = lower value; OD600 absorbance (test concentration not listed); 0.21% of 330,000 active; AID 1053175;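 active means OD600 absorbance below the run mean of sample wells minus 3.6 SD, in any replicate, cut at about 0.56 in these data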;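 further: stock transfer was 300 nL into about 60 µL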
# Ecoli rRNA inh: inhibits bacterial ribosomal RNA function over humanized ribosomes; E. coli WT GFP vs humanized-ribosome RFP mutants, fluorescence, 24 h; stronger effect = lower value; DMSO median 0, no signal -100; AID 720706; GFP signal change (wild-type ribosome), % (no concentration beside the values); 1.6% of 350,000 active;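 active means significant combined selectivity score with lowered wild-type GFP, culture density cut under 30%, mutant RFP and density less affected; inactive means any of these conditions unmet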; further: one replicate is shown; some compounds called inactive have numbers as strong as hits
# Ecoli rRNA inh OD600: also measured in Ecoli rRNA inh; calls as there; OD600 change, %; measured here: OD600 growth;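 optical density of the mix in the first replicate; 0 = DMSO median and -100 = no signal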
# Ecoli rRNA inh RFP: recorded beside Ecoli rRNA inh, whose call it bears; RFP signal change, %; measured here: RFP humanized mutant strains;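 first replicate; 0 = DMSO median and -100 = no signal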
# * marks the source's active call; other numbers are inactive results; i = inactive; ? = inconclusive; . = no result given; + = active, no number.
SMILES,Vif TR-FRET,HNF4A DNA FP,MLL AF4-AF9 inh,FGF22 binding,ALR H2O2 inh,Ecoli growth,Ecoli rRNA inh,Ecoli rRNA inh OD600,Ecoli rRNA inh RFP
CSc1ccccc1C(=O)OCC(=O)NC1CCCCCCC1,-11%,1.1,-3.4,i,.,.,2,-9,-1.7
Cc1c(NC(=O)OCCNC(=O)COc2ccc(Cl)cc2Cl)sc(=S)n1C,.,3.3,.,.,97*,0.66,.,.,.
Cc1onc(-c2ccccc2Cl)c1C(=O)N(Cc1ccc(N(C)C)cc1)C(C)C,.,0.5,.,i,10,0.63,-18,-15,2.5
O=C(COc1ccccc1)NC1CCSc2ccccc21 (stereo not drawn),2%,5.4,-4.3,i,-4,0.68,-6,-10,-0.7
O=C1C=C(c2cccnc2)CCC1,.,1.6,.,.,-7,0.68,.,.,.
C[C@@H]1CN([C@H](C)CO)C(=O)c2cccc(NS(C)(=O)=O)c2O[C@H]1CN(C)Cc1ccc2c(c1)OCO2,.,.,1.4,i,.,.,3,0,-2.0
CC1(C)N([O-])C(c2cccs2)=C[N+]1=O,5%,7.7,.,.,-5,0.7,.,.,.
O=C(CN1C(=O)COc2ccccc21)NCCN1CCOCC1,.,-5.2,-4.2,i,-3,0.69,6,7,-3.1
Cc1cc(COc2ccccc2OCCN2CCN(C)CC2)no1,-7%,0.6,.,.,-8,0.68,.,.,.
Cc1ccc(S(=O)(=O)N(CC(=O)NCCSc2ccccn2)c2ccc(C)c(C)c2)cc1,.,-3.0,1.1,i,.,0.69,.,.,.
O=C(OCC(=O)N1CCOCC1)c1ccc(Br)cc1,.,-4.8,-4.3,i,-2,0.61,5,9,-1.8
O=C(Nc1ccccc1F)c1oc2ccccc2c1NC(=O)C1CC1,-9%,-0.3,-1.6,i,-15,0.68,14,7,-6.2
CC(C)(C)NC(=O)CN(C(=O)CCC(=O)Nc1nccs1)c1ccc(F)cc1,.,-2.3,-0.4,i,-6,0.73,-3,0,-1.4
CC1(C(=O)NS(=O)(=O)c2ccccc2Cl)CCN1C(=O)C1CCCCC1 (stereo not drawn),.,0.5,1.7,i,.,.,12,26,-1.3
O=C(CN1CCN(S(=O)(=O)N2CCCCC2)CC1)Nc1cc(Cl)cc(Cl)c1,.,-4.6,-1.5,i,1,0.69,-11,-48,3.6
CN(C)CCOC(=O)NCC12CC3CC(CC(C3)C1)C2,3%,0.7,-1.9,i,.,0.68,7,-1,0.6
Cc1ccc(C(=O)N/N=C\c2cccs2)cn1,15%,3.5,-0.6,i,-4,.,3,14,-0.6
CN1C[C@H](O)COC[C@@H]2O[C@H](CC(=O)NC3CCCC3)CC[C@H]21,.,.,-2.0,i,.,.,3,-3,-2.4
C[C@H](O)[C@@H]1C(=O)N2CCc3ccc(-c4ccccc4)cc3[C@@H]2C[C@@H]1N(C)C(=O)c1cccnc1,2%,3.6,-5.0,i,.,.,.,.,.
O=C(NNS(=O)(=O)c1ccc2ccccc2c1)c1cccs1,-5%,-3.2,.,.,12,0.69,.,.,.
C=CCn1c(SCC(C)=O)nc2scc(-c3ccco3)c2c1=O,.,-34,-0.8,i,-49,0.69,2,5,0.1
O=C1CN(C(=O)c2ccc(Br)o2)C(c2ccc(F)cc2)c2cc(Cl)ccc2N1 (stereo not drawn),2%,0.0,.,.,-11,0.72,.,.,.
CCCC(=O)N1CCCC1(C)C(=O)Nc1ccc2cn[nH]c2c1 (stereo not drawn),.,-0.2,-2.4,i,.,.,9,9,2.9
CCC(=O)NCCc1nc2cc(NC(=O)c3cccc([N+](=O)[O-])c3)ccc2n1C,4%,-0.5,-2.0,i,3,0.68,-3,12,-1.6
CC(C)c1cccc(-c2ccc3c(c2)S(=O)(=O)c2cccc(C(=O)NCc4ccco4)c2C3=O)c1,.,-20,-3.4,i,-4,0.71,-5,-12,30
# (listing goes on)
SMILES,Vif TR-FRET,HNF4A DNA FP,MLL AF4-AF9 inh,FGF22 binding,ALR H2O2 inh,Ecoli growth,Ecoli rRNA inh,Ecoli rRNA inh OD600,Ecoli rRNA inh RFP
Cc1cc(C)n(-c2ccc(C(=O)OCC(=O)NCc3ccc(F)cc3)cc2)n1,8%,-2.1,-0.9,i,-18,0.64,2,9,-4.6
COc1ccc(C(=O)OC(C)CN2CCN(C)CC2)cc1 (stereo not drawn),.,6.6,3.4,i,-6,0.67,8,11,0.2
O=[N+]([O-])c1c(NCCO)cc(N2CCCCCC2)c2nonc12,.,4.2,2.4,i,.,0.68,4,9,-0.6
C[C@H](CO)N1C[C@H](C)[C@@H](CN(C)S(=O)(=O)c2cccs2)Oc2ccc(N(C)C)cc2CC1=O,.,.,12,i,.,.,-4,-8,2.3
O=C(Nc1nc2ccccc2s1)c1cnccn1,4%,-0.8,.,.,0,0.66,.,.,.
CC(C)C[C@@H](CN)NC(=O)c1nc[nH]c1C(=O)N[C@@H](C)C(=O)CNC[C@H](C)NC(=O)c1nc[nH]c1C(=O)N[C@@H](Cc1ccccc1)C(=O)O,0%,-0.7,-1.0,i,.,.,26,14,3.1
CC1CCCCN1C(=O)C1CCCN(S(=O)(=O)c2cccc3nsnc23)C1 (stereo not drawn),3%,2.7,-2.3,i,-1,0.68,-20*,-12*,4.1*
CCc1nc2c(OCCOc3ccc(F)cc3)cccn2c1N(C)C(=O)c1ccco1,.,7.4,2.6,i,.,.,0,0,3.6
COc1ccc(S(=O)(=O)Nc2cccc3c2O[C@@H](CN(C)C(=O)Nc2ccc(C(F)(F)F)cc2)[C@@H](C)CN([C@H](C)CO)C3=O)cc1,.,.,-0.2,i,.,.,0,-2,0.8
COc1ccccc1-c1nc(-c2ccccc2)[nH]c(=O)c1C#N,7%,-2.1,-0.6,i,7,0.7,2,3,4.4
COCCN(C(=O)Cc1csc(-c2cccc(Cl)c2)n1)c1c(N)n(Cc2ccccc2)c(=O)[nH]c1=O,.,3.3,0.3,i,.,0.69,-6,-13,1.4
COc1ccc(-n2c(C)cc(C(=O)CN3C(=O)NC4(CCc5ccccc54)C3=O)c2C)cc1 (stereo not drawn),.,0.1,.,.,-8,0.65,.,.,.
O=C(c1ccc(S(=O)(=O)NCc2ccco2)cc1)N1CCN(c2ccc(F)cc2)CC1,-6%,-0.4,2.4,i,17,0.66,-4,-6,-0.7
CN1C(=O)CC2(C)C1=CCc1scnc12 (stereo not drawn),.,1.1,-0.5,i,.,.,12,9,-0.1
Cc1onc(-c2ccccc2Cl)c1C(=O)NC(=S)NCCc1ccccc1,-2%,0.8,.,.,-5,0.66,.,.,.
O=C(Nc1ccccc1)C(Cc1cccs1)c1nn[nH]n1 (stereo not drawn),3%,-0.6,.,.,-2,0.74,.,.,.
CCN(CC)CCCNC(=O)C(C)n1nc(C)c2sc3ccccc3c2c1=O (stereo not drawn),3%,2.5,.,.,13,0.73,.,.,.
O=C(Nc1cccc(Br)c1)c1cccc(OC(=S)N2CCOCC2)c1,5%,3.4,0.2,i,17,.,-31,-34,-7.7
CCCNC(=O)N(C)C[C@H]1Oc2ncc(-c3ccc(C(=O)N(C)C)cc3)cc2C(=O)N([C@@H](C)CO)C[C@@H]1C,.,.,-6.0,i,.,.,6,12,-1.8
O=C(COC(=O)c1ccccc1[N+](=O)[O-])c1ccc2c(c1)OCO2,0%,1.2,1.5,i,-5,0.69,9,1,1.3
Cc1ccccc1-c1cn(-c2ccccc2)c(=S)[nH]1,-3%,-0.8,5.6,i,?,0.65,0,0,-2.2
CC(=O)c1ccc(NC(=O)/C(Cl)=C/c2ccccc2)cc1,.,-1.6,0.9,i,-10,0.65,9,1,-2.2
COc1ccc(-c2noc(CCC(=O)N3CCN(c4ccccc4C)CC3)n2)cc1,-3%,3.3,-3.3,i,.,0.72,-9,-32,-2.4
CC1(CCOCc2ccccc2)NC(=O)NC1=O (stereo not drawn),0%,0.5,-7.5,i,.,0.72,9,9,-0.2
N#Cc1c(C(F)(F)F)cc(=O)n2c1[nH]c1ccccc12,.,0.9,-26,i,1,0.57,-57,-80,-18
# (list continues)
SMILES,Vif TR-FRET,HNF4A DNA FP,MLL AF4-AF9 inh,FGF22 binding,ALR H2O2 inh,Ecoli growth,Ecoli rRNA inh,Ecoli rRNA inh OD600,Ecoli rRNA inh RFP
Cc1cccc(-c2ccc([C@H]3[C@@H](CO)N4CCCCN(Cc5ccncc5)C[C@H]34)cc2)c1,.,.,9.4,i,.,.,-1,-8,11
O=C(O)C1C2CCC(C2)C1C(=O)Nc1cc(F)ccc1F (stereo not drawn),1%,-1.8,.,.,-27,0.66,.,.,.
CC(=O)c1c(OC(=O)c2ccc(C)cc2)c2ccccc2n1C,33%,-1.6,1.4,i,1,0.66,-29,-23,-6.7
CCCN(C)C[C@@H]1OCCCC[C@@H](C)Oc2ccc(NC(=O)Nc3ccc(F)cc3)cc2C(=O)N([C@H](C)CO)C[C@H]1C,.,.,-0.2,i,.,.,5,8,2.1
NCCOc1ccc(C2CCCCC2)cc1,.,4.5,5.4,i,-28,0.67,6,3,-4.2
COc1ccccc1/C=C/CN1CCN(c2ccccc2)CC1,-6%,5.8,.,.,37,0.67,.,.,.
C[C@@H]1CN([C@@H](C)CO)C(=O)Cc2cc(NC(=O)c3ccncc3)ccc2O[C@H]1CN(C)CC1CC1,.,.,-0.5,i,.,.,-1,3,-2.6
COc1ccc2nc(NC(=O)CCNC(=O)c3ccccc3Cl)sc2c1,-4%,0.6,-1.7,i,-5,0.66,7,6,-0.1
CC(C)(C)OC(=O)N1CCN(C(=O)c2[nH]cnc2C(=O)Nc2ccc(Cl)cc2)CC1,.,-2.4,-4.3,i,-2,0.65,12,15,8.0
C/C=C/c1ccc2c(c1)O[C@H](CN(C)C(=O)Nc1ccc(OC)cc1)[C@@H](C)CN([C@@H](C)CO)S2(=O)=O,.,.,2.6,i,.,.,-4,-5,0.4
O=C(Oc1ccc(=O)n(-c2ccccc2)n1)c1cccc(Cl)c1,6%,-0.3,.,.,14,0.74,.,.,.
COc1cc(OC)c(C2=NOC(C(=O)Nc3ccc4c(c3)OCO4)C2)cc1Cl (stereo not drawn),?,3.2,5.6,i,-33,0.67,-5,-6,5.2
O=C(CC1C(=O)N(c2ccc(Cl)cc2)C(=S)N1CCc1ccncc1)Nc1ccc(F)cc1 (stereo not drawn),1%,-0.8,-37,+,-1,0.66,-21*,-9.6*,5.2*
COc1cc(CC(=O)OCC(=O)Nc2ccc(N(C)C)cc2)cc(OC)c1OC,.,0.9,1.3,i,.,0.7,-3,-1,-1.3
O=C(c1ccccc1)N1CC[C@@H]2[C@H]1c1cc(-c3ccccc3F)ccc1N[C@@H]2CO,.,.,-1.5,i,.,.,-5,-13,9.8
CC(=O)N1CCN(C(=O)COc2ccc(Br)cc2)CC1,1%,0.8,.,.,-16,0.66,.,.,.
Cc1cccc(NC(=O)Nc2ccc(Oc3c(F)c(F)c(F)c(F)c3F)cc2)c1,5%,2.0,-1.1,i,1,0.72,15,7,1.2
O=C(Cc1ccc(F)cc1)NCCS(=O)(=O)N1CCN(c2cccc(Cl)c2)CC1,4%,3.3,-1.9,.,-2,0.65,2,1,0.8

# The list is partial; count on the stated rates, not on these rows.
